Tg IFNy HTS – inhibitors of Toxoplasma gondii growth with IFN-gamma. Toxoplasma gondii growth in IFN-gamma-treated host cells; hits give low values; reference of the scale not given here. activity change, negative = inhibition, %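 (about 20 µM by stock and volumes)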. 69,000 tested, 3.8% active;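 active = below -70%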;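 note: host cells are HeLa cells infected with Toxoplasma gondii; parasite growth read as luciferase light; one replicate is shown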
An asterisk follows results filed as active; & = joins results of further samples. The list is partial; rates above refer to the full screens.

SMILES	Tg IFNy HTS
CC(C)(C)[S@@](=O)N1Cc2cc(C(=O)NC3CCC3)nc(-c3cccc(Br)c3)c2[C@H]1CCO	48
COc1ccc(-c2nnsc2N2C(=O)c3ccccc3C2=O)cc1	-24
Cc1cnc(N2Cc3nccn3CC(CN3CCCC3)C2)nc1 (stereo not drawn)	-52
O=C1CCC2(CCN1)CCN(C(=O)c1ccc(-c3ncn[nH]3)cc1)CC2	6
Cc1cnn(C)c1NC(=O)c1cccc(CN(C)Cc2cnccn2)c1	2
Cc1ccc(NC(=O)CC(=O)NC(C)c2cnn(C)c2)cc1 (stereo not drawn)	-4
Cc1nc(C)c(C(=O)N2CCC[C@@H](Cn3nnc(-c4ccccn4)n3)C2)s1	-30
CCc1ccc(S(=O)(=O)NCC(c2cccnc2)c2cn(C)c3ccccc23)cc1 (stereo not drawn)	-62
O=C1NCC(=O)N2CCN(C(=O)Nc3cc(Cl)cc(Cl)c3)CC12 (stereo not drawn)	-61
Cc1ncc2c(c1CNC(=O)CSc1ccccc1)CCN(C(=O)/C=C/C(C)C)C2	10
Cc1nc(-c2ccc(F)cc2)sc1-c1ccc(SCc2ccncc2)nn1	-14
CC=Cc1ccc2n(c1=O)C[C@H]1N[C@@H]2[C@@H](C(=O)NC2CCCC2)[C@@H]1CO (mixture of isomers)	6
C[C@H](CO)N1C[C@H](C)[C@H](CN(C)Cc2ccc(Oc3ccccc3)cc2)Oc2c(NS(=O)(=O)c3cn(C)cn3)cccc2C1=O	-26
COc1ccc(-c2nc(Cn3c(=O)cc(C(=O)N4CCCCC4)c4ccccc43)c(C)o2)cc1	-52
CC(NCCc1ccc(O)cc1)C(O)c1ccc(O)cc1 (stereo not drawn)	-3&5&13
COc1cc(C(=O)Oc2cc(C)cc(C)c2)cc(OC)c1OC	-2
Cc1ccc(CN2CCc3nnc(CN(C)C(C)C)n3CC2)s1	0
Cc1ccsc1S(=O)(=O)N1CCC(Cc2cccc(C(N)=O)c2)C1 (stereo not drawn)	11
Cc1ccc(Cl)cc1NC(=O)Cn1c(=O)cc(C(=O)N2CCCCC2)c2ccccc21	2
C[C@@H]1CN([C@H](C)CO)C(=O)CCCn2cc(nn2)CO[C@@H]1CN(C)C(=O)CCC(F)(F)F	8
CNCC1CCC(c2cc(CN(C)C(=O)c3cccnc3N)n(C)n2)CC1 (stereo not drawn)	1
COc1ncnc2c1CCN(CC1CCOC1)CC2 (stereo not drawn)	108
CC(C)C(=O)N1CCc2c([nH]c3ccccc23)C12C(=O)Nc1ccc(Br)cc12 (stereo not drawn)	196
COc1ccc2c(c1)[nH]c1c(=O)n(Cc3ccccn3)cnc12	16
Cn1ccnc1CN1CC[C@@H](O)[C@@H]1Cc1cccnc1	-5

Sorted by molar mass (falling): part of the list above
SMILES	Tg IFNy HTS
C[C@H](CO)N1C[C@H](C)[C@H](CN(C)Cc2ccc(Oc3ccccc3)cc2)Oc2c(NS(=O)(=O)c3cn(C)cn3)cccc2C1=O	-26
CC(C)(C)[S@@](=O)N1Cc2cc(C(=O)NC3CCC3)nc(-c3cccc(Br)c3)c2[C@H]1CCO	48
C[C@@H]1CN([C@H](C)CO)C(=O)CCCn2cc(nn2)CO[C@@H]1CN(C)C(=O)CCC(F)(F)F	8
CC(C)C(=O)N1CCc2c([nH]c3ccccc23)C12C(=O)Nc1ccc(Br)cc12 (stereo not drawn)	196
Cc1ncc2c(c1CNC(=O)CSc1ccccc1)CCN(C(=O)/C=C/C(C)C)C2	10
CCc1ccc(S(=O)(=O)NCC(c2cccnc2)c2cn(C)c3ccccc23)cc1 (stereo not drawn)	-62
Cc1nc(-c2ccc(F)cc2)sc1-c1ccc(SCc2ccncc2)nn1	-14
CNCC1CCC(c2cc(CN(C)C(=O)c3cccnc3N)n(C)n2)CC1 (stereo not drawn)	1
CC=Cc1ccc2n(c1=O)C[C@H]1N[C@@H]2[C@@H](C(=O)NC2CCCC2)[C@@H]1CO (mixture of isomers)	6
O=C1CCC2(CCN1)CCN(C(=O)c1ccc(-c3ncn[nH]3)cc1)CC2	6
Cc1cnn(C)c1NC(=O)c1cccc(CN(C)Cc2cnccn2)c1	2
COc1ccc(-c2nnsc2N2C(=O)c3ccccc3C2=O)cc1	-24
COc1cc(C(=O)Oc2cc(C)cc(C)c2)cc(OC)c1OC	-2
Cc1cnc(N2Cc3nccn3CC(CN3CCCC3)C2)nc1 (stereo not drawn)	-52
COc1ccc2c(c1)[nH]c1c(=O)n(Cc3ccccn3)cnc12	16
COc1ncnc2c1CCN(CC1CCOC1)CC2 (stereo not drawn)	108

The list continues:
SMILES	Tg IFNy HTS
COCCN1C(=O)CO[C@H]2CN(c3cc(C(F)(F)F)ncn3)C[C@@H]21	-3
CC1(C)CC(c2nccn2-c2ccc(Oc3nn[nH]n3)cc2)CCO1 (stereo not drawn)	0
CN(C)C(=O)N1CCc2onc(C(=O)N3CCCC3)c2C1	-30
Cc1c(S(=O)(=O)N2C3CCC2CC(O)(c2ccc4c(c2)OCO4)C3)cnn1C (stereo not drawn)	4
CCC1COC2(CCCN(C(=O)c3ccc4nc[nH]c4c3)C2)C1 (stereo not drawn)	-30
CO/N=C(/C(=O)NC1C(=O)N2C(C(=O)O)=C(C[N+]3(C)CCCC3)CSC12)c1csc(N)n1 (stereo not drawn)	20
Cc1cn(C(=O)c2snnc2C)nc1-c1cccs1	27
CCCC(C(=O)N1CCC2(CC1)CN(C)CCN2C)n1cccc1 (stereo not drawn)	-10
COc1cc(C(=S)N(C)C)ccc1O	-3
Cc1ccc(NC2CCCN(C(=O)CCn3ccc(=O)[nH]c3=O)C2)cc1C (stereo not drawn)	10
CCN(CC)C(=O)c1cc(=O)n(CC(=O)Nc2ccc(C)c(F)c2)c2ccccc12	0
Cn1nccc1C(=O)N1CCc2c([nH]c3ccccc23)C1c1ccc(Cl)cc1 (stereo not drawn)	-115*
Cc1c(C)c(C)c(S(=O)(=O)Nc2cc(-c3ccccc3)nn2CCC#N)c(C)c1C	-88*
O=C(C[C@@H]1CC[C@H]2[C@@H](COC[C@@H](O)CN2Cc2ccc(Oc3ccccc3)cc2)O1)N1CCN(c2ccccc2)CC1	-38
COCC1C(=O)N(CC2CC2)CC12CCN(C(=O)N1CCCC1)CC2 (stereo not drawn)	-4
Nc1nc(-c2cccnc2)nc2ccccc12	19
CNC(=O)c1ccc(C2CCCN2S(=O)(=O)c2ccc(CC(=O)N(C)C)cc2)nc1C (stereo not drawn)	6
Cc1ccc(NC(=O)Cn2ncc3c(N4CCN(c5ccccn5)CC4)ncnc32)cc1Cl	-74*
Cc1ccc(CN2C[C@H](N3CCOCC3)[C@H]3OCCC[C@@H]32)o1	-47
COc1ccc(CC(=O)NCC2CCC(c3nn(C)cc3-c3cc(C)no3)CC2)cc1C (stereo not drawn)	-16
C/C=C/c1ccc([C@H]2[C@@H](CO)N3C(=O)CN(C(=O)Nc4cccc(OC)c4)C[C@H]23)cc1	12
CCOc1ccc(-c2nc3c(s2)CN(S(=O)(=O)c2ccc(F)cc2)CC3)cc1	43
Cc1nnnn1-c1cccc(NC(=O)Cc2cc(Cl)c3c(c2)OCCCO3)c1	-11
CCNC(=O)[C@@H]1CCCN1Cc1cc2cc3c(cc2[nH]c1=O)CCC3	-1
Cc1ccc(C(=O)N2C[C@H]3CCC[C@]3(COCc3ccccn3)C2)s1	4
New compounds follow:
SMILES	Tg IFNy HTS
CNc1cc(-c2ccc(CN)cn2)c2cc[nH]c2n1	1
COc1ccc(S(=O)(=O)N2CCCC2C(=O)Nn2cnnc2)cc1 (stereo not drawn)	22
CC(=O)c1ccc(NC(=O)CSCc2cc(C)cc(C)c2)cc1	151
O=C(c1ccc(NCc2cccnc2)nc1)N1CCC(Oc2cccnc2)CC1	17
CCOC(=O)c1nc(C)sc1-c1ccnn1S(=O)(=O)c1ccccc1C(F)(F)F	59
COC(=O)c1c(NCc2cccc(Br)c2)c2cc(F)ccc2[nH]c1=O	-46
Cc1noc(C)c1S(=O)(=O)N(C)C[C@H]1OCCCC[C@H](C)Oc2ccc(NC(=O)CCC(F)(F)F)cc2C(=O)N([C@@H](C)CO)C[C@@H]1C	143
CCc1ccc(S(=O)(=O)N2CCc3nc(-c4cccc(OC)c4)sc3C2)cc1	-46
O=C1CC2(CCN(S(=O)(=O)C3CC3)C2)CN1c1cccc(F)c1 (stereo not drawn)	-2
COCCNc1nc(-c2ccc(OC)cc2)nc2ccccc12	-64
COCCN1CCOCC2(CCCN(C(=O)c3ccc4ncccc4c3)C2)C1 (stereo not drawn)	-4
CN(C)CC1(O)CCCN(C(=O)c2c(F)cccc2F)C1 (stereo not drawn)	-6
Cc1occc1C(=O)N1C[C@H]2CC[C@@]3(N=C(c4ccccc4)NC3=O)[C@H]2C1	-4
COc1ccc(C)cc1NC(=O)C(=O)NCCc1sc(-c2ccc(C)cc2)nc1C	239
COCC12CCCOC1CCN(C(=O)C1=CCCC1)C2 (stereo not drawn)	-81*
Cc1ccc(S(=O)(=O)N(C)c2cncc(C(=O)NC(C)C)c2)cc1	14
Cn1c(C2CCCN(C(=O)CCNc3ccc(Cl)cn3)C2)nc2ccccc21 (stereo not drawn)	-4
CS(=O)(=O)NC[C@H]1CCC[C@]2(CCN(Cc3nccs3)C2)O1	-4
C[C@@H]1CN([C@@H](C)CO)C(=O)c2cc(NS(C)(=O)=O)ccc2O[C@@H](C)CCCCO[C@@H]1CN(C)C(=O)Cc1ccccc1	0
CN(C)C1CCN(C(=O)c2cc(-c3cnc(-c4cccc(F)c4)nc3)cn2C)CC1	-25
CC(=O)Nc1ccc(Cl)c(C(=O)NCC(O)c2ccccc2)c1 (stereo not drawn)	67
CCOC(=O)c1nc(NC(C)c2ccccc2)c2ccccc2n1 (stereo not drawn)	22
CN1CCCCC1Cn1ccnc1-c1ccccc1OCCO (stereo not drawn)	9
COc1ccccc1C#Cc1ccc([C@@H]2[C@H](CO)N3CCCCN(C(=O)C4CCC4)C[C@@H]23)cc1	-66
CCC(=O)N1CC[C@H]2[C@H](CO)Nc3ccc(C#Cc4ccccc4F)cc3[C@H]21	0
Next part
SMILES	Tg IFNy HTS
COc1ncc(-c2c(-c3ccccc3)ncn2CCNc2cccnc2)cn1	-30
CCCc1nc(C(=O)N2CCN(S(=O)(=O)CC)CC2)cs1	36
CCN1C[C@@H]2C3(CCN(C(=O)NCc4ccc(OC)cc4)CC3)CC[C@@]2(C(=O)N(C)C)C1	-42
CNC[C@H]1OCc2ccccc2-c2ccccc2C(=O)N([C@@H](C)CO)C[C@@H]1C	-6
Cc1cccc(-c2nc(Cn3nnc(-c4nc(-c5ccc6c(c5)OCO6)no4)c3C)c(C)o2)c1	7
COc1cc(CNC(=O)Cn2ncc3c(N4CCOCC4)ncnc32)cc(OC)c1	-58
O=S(=O)(c1cccc2nsnc12)N1CCN(C2c3ccccc3-c3ccccc32)CC1	-24
Cc1cc(C(=O)N2C[C@H]3C[C@@H]4[C@@](C2)(CN(Cc2ccccc2)S4(=O)=O)O3)no1	-8
C=CCn1c(=O)c(-c2nc(-c3ccc(OC(C)C)cc3)no2)c(O)c2ccccc21	20
Cc1nc(NS(C)(=O)=O)sc1C(=O)N[C@H](C)Cn1c(=O)oc2ccccc21	16
CCSC1=NCN(Cc2cccs2)CN1	-41
CCn1c(SCc2nc(-c3cccc(C)c3)oc2C)nc(=O)c2c(C(=O)OC)cc(C3CC3)nc21	3
CCS(=O)(=O)Nc1ccc2c(c1)C(=O)N(C)[C@@H]1CC[C@@H](CC(=O)NC3CCCCC3)O[C@H]1CO2	-41
O=c1c(N2CCN(S(=O)(=O)c3ccc(Cl)cc3)CC2)coc2ccccc12	-22
O=C(c1ccccc1)N1CCn2nnc(COCc3cccnc3)c2C1	-19
CC(C)Cc1noc(CN(C)C(=O)C2CC3(CCNCC3)CN2)n1 (stereo not drawn)	61
CN1CC2(CCN(C(=O)c3ccc(Cn4ccnc4)o3)C2)OC1=O (stereo not drawn)	12
NC(=O)C1CN(c2nc(C3CCCC3)nc3c2CNC3)CCO1 (stereo not drawn)	4
CC(O)c1nc2ccccc2n1C/C=C/c1ccccc1 (stereo not drawn)	-4
Cc1nc(C(C)C)sc1C(=O)N(C)Cc1nc(-c2ccccn2)no1	-5
Cc1cc(NCCNC(=O)CN2C(=O)NC3(CCC(C)CC3)C2=O)c2ccccc2n1 (stereo not drawn)	-2
c1ccc(CCN2CCn3c(Cn4cccn4)cnc3C2)cc1	-7
O=C(CN1C(=O)CCc2cc(Br)ccc21)Nc1ccc(CN2CCCCC2)cc1	-51
O=C1CCN(c2ccccc2C(=O)Nc2cnc3n2CCCC3)C(=O)N1	-4
Cc1oc(C2CCN(C(=O)Nc3ccc(F)cc3F)CC2)nc1C(=O)N1CCOCC1	-16
More compounds
SMILES	Tg IFNy HTS
C[C@H](NC(=O)C[C@H]1CC[C@H]2[C@@H](COC[C@@H](O)CN2Cc2ccc(C(F)(F)F)cc2)O1)c1ccccc1	-2
COCC(=O)NCCc1nc(N(C)C)ncc1-c1ccncc1	232
COc1cccc(NC(=O)N2[C@H](CO)[C@H](c3ccccc3)[C@H]2CNCC(C)C)c1	-17
CN(C)CC(=O)N1CCOC2(COCCN(c3cncnc3)C2)C1 (stereo not drawn)	-33
COc1cccc(C(=O)NCCc2csc(-c3ccc(F)cc3)n2)c1	-68
COc1ccc(-c2noc(COc3cccnc3N)n2)cc1	-52
Cn1cnnc1SCC(=O)N1CCCc2ccccc21	-4
c1c(CN2CCN(C3CCSCC3)CC2)nn2c1CNCCC2	4
CN(Cc1ccccc1F)C[C@H]1[C@@H](c2ccccc2)[C@@H](CO)N1S(C)(=O)=O	11
COc1ccc(C(=O)NCc2ccco2)cc1OC	85
O=C(c1cnccn1)N1CC(=O)N2[C@@H](CO)[C@@H](c3ccc(-c4cccc(F)c4)cc3)[C@@H]2C1	4
OCCN1C[C@H](O)[C@@H](O)[C@H](O)[C@H]1CO	3
CO[C@@H]1CC[C@@H]2[C@@H]1OCCN2C(=O)c1ccc2ccccc2c1	-10
O=C(c1ccc(Cl)s1)N1CCCC2(C1)Nc1cccnc1NC2=NC1CCCC1 (stereo not drawn)	-32
CCOc1cc(C(F)(F)F)c(C(=O)N(CC)c2ccc(Cl)cc2)cn1	3
COc1cc(=O)n(C)c2ccccc12	3
Cc1cc(C)n(CCCN(C)S(=O)(=O)N2CCC(C)CC2)n1	-1
CCCn1ncnc1C(C)NC(=O)COc1c(C)ccc(C)c1C (stereo not drawn)	-11
CCC(CC)C(=O)Nc1nnc(SCCOC)s1	-5
N#CC(Cc1ccccc1)Sc1ccccc1 (stereo not drawn)	12

Assay outcomes (PubChem BioAssay)
